# Source: PubChem BioAssay (National Center for Advancing Translational Sciences (NCATS))
# NS1 function inh: inhibitors of influenza NS1 protein function. S. cerevisiae slowed by influenza A NS1, growth recovery by OD600. Potency, µM (doses to about 46.1 µM), for inactives: at the top dose activity, positive = more growth. actives 0.4% (n = 270,000); note: actives are rising curves; nearly all actives have a fitted effect of over 50% in size
#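 Growth recovery, yeast-based: influenza A NS1 expressed in S. cerevisiae causes slow growth, and suppressors are detected by OD600. The parent strain without NS1 is used as positive control.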
# StopGo reporter: FMDV 2A StopGo reporter, luciferase signal | human cells with a luciferase reporter of 2A StopGo recoding; control for the full effect not named in the record | Potency, µM (series often up to 57.9 µM), for the others: at the top dose signal change, negative = less light | actives 1.2% (n = 410,000) | AID 1159524; active = well fitted falling curve with a large enough effect; inconclusive = small, poorly fitted or top-dose-only effect; inactive = no such curve, though single readings can be large or run the other way; tested in HEK293T cells; note: % is set by controls: 0 for no effect and ±100 for the full control effect; nearly all actives have a fitted effect of over 45% in size; luciferase light after 4 h
# LASV entry inh: inhibitors of Lassa virus binding or cell entry. Potency, µM (series often up to 37.9 µM), for inactives: top-dose activity change, negative = inhibition, actives largely listed as inhibitors. actives 1.2% (n = 300,000). Lassa virus pseudotype entry inhibition, cell reporter; control for the full effect not named in the record; active means well fitted inhibition curve with a large enough effect; inconclusive means small, poorly fitted or top-dose-only effect, or effect the other way; inactive means flat fitted curve, though single readings scatter; tested in HEK293 cells; note: % is set by controls: 0 for no effect and ±100 for the full control effect; nearly all actives have a fitted effect of over 50% in size; luciferase read-out
# SARS PLP yeast: inhibitors of SARS-CoV papain-like protease in yeast; S. cerevisiae expressing SARS-CoV PLpro, growth rescue; control for the full effect not named in the record; Potency, µM (doses to about 32.9 µM), for the others: at the top dose activity, positive = growth rescue; actives 0.19% (n = 330,000); AID 485353; note: 0% is about no effect; nearly all actives have a fitted effect of over 55% in size; growth read by luminescence after 48 h
# Marburg entry inh: Marburg virus entry inhibition | Potency, µM (titrated, usually from 37.8 µM), inactives show top-dose activity change, negative = inhibition, hits mostly inhibitors | actives 1.8% (n = 300,000) | Marburg virus pseudotyped entry inhibition, cell reporter; control for the full effect not named in the record; about a third of the inactives were read at about 46 µM; active = well fitted inhibition curve with a large enough effect; inconclusive = small, poorly fitted or top-dose-only effect, or effect the other way; inactive = flat fitted curve, though single readings scatter; tested in HEK293 cells; about a fifth of its hits are not listed in these tables; note: % is set by controls: 0 for no effect and ±100 for the full control effect; luciferase read-out
# RE007 growth inh: less growth of the S. pombe RE007 Vpr strain | AID 651644 | Potency, µM (highest dose often 92.2 µM), for the others: at the highest dose activity change, negative = less growth | S. pombe RE007 Vpr strain, BacTiter-Glo ATP luminescence, 24 h; control for the full effect not named in the record | actives 0.21% (n = 360,000); active = well fitted falling curve with a large enough effect; inconclusive = small, poorly fitted or top-dose-only effect; inactive = no such curve, though single readings can be large or run the other way;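 note: % is set by controls: 0 for no effect and ±100 for the full control effect; nearly all actives have a fitted effect of over 50% in size; the assay follows cell death caused by Vpr and the record does not say whether a fall means rescue or toxicity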
#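 Fission yeast RE007 carrying one integrated HIV-1 vpr copy, seeded at OD 0.01 in PMG+AL medium with 23 nL pinned compound. Grown 24 h at 30 degrees; viability read by BacTiter-Glo luminescence after 5 min.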
# Cruzain noTriton: inhibitors of Trypanosoma cruzi cruzain without detergent; P25779; purified cruzain, Z-FR-AMC fluorescence, no detergent; Potency, µM, without a hit: max response, negative = inhibition, hits mostly inhibitors; actives 2.3% (n = 200,000); AID 1476; active = well fitted curve in the direction sought with a large enough effect; inconclusive = small, poorly fitted or top-dose-only effect, or another doubt; inactive = no such curve, though single readings can be large; an effect the other way counts as inactive or inconclusive;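 note: plate controls were enzyme without inhibitor for no effect and buffer without enzyme for full effect; nearly all actives have a fitted effect of over 40% in size; top concentration of the series not given in the record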
# Target sequence (P25779 123-467 limits assumed): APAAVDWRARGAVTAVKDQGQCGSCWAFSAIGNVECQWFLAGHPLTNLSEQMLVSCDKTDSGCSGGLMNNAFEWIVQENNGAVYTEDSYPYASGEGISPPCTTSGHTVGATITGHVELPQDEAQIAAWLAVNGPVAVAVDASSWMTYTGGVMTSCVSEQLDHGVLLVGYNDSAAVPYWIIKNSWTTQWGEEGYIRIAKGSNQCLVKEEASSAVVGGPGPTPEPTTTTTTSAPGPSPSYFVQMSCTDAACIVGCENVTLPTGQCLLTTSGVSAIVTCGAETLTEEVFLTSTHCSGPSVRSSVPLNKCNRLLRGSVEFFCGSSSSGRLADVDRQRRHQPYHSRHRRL
#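 Detergent-free condition (0.00005% Triton X-100) in acetate buffer pH 5.5 with DTT. 1.5 nM enzyme and compound were pre-mixed 15 min, then 2 uM Z-FR-AMC substrate added; reaction progress from fluorescence change between first and third reads (60 s).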
# Cruzain inh Det: cruzain (T. cruzi) inhibition with detergent | purified cruzain, Z-FR-AMC fluorescence, 0.01% Triton | Potency, µM, for the others: max response, negative = inhibition, usual class: inhibitors | actives 0.43% (n = 200,000) | AID 1478; active = well fitted curve in the direction sought with a large enough effect; inconclusive = small, poorly fitted or top-dose-only effect, or another doubt; inactive = no such curve, though single readings can be large; an effect the other way counts as inactive or inconclusive;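 note: plate controls were neutral wells for no effect and buffer without enzyme for full effect; nearly all actives have a fitted effect of over 40% in size; top concentration of the series not given in the record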
#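 15 min RT preincubation of 1.5 nM cruzain with compound, then 2 uM Z-FR-AMC added; kinetic AMC fluorescence, 60 s delta. Triton X-100 0.01%, pH 5.5.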
# * = called active by the depositor; ? = inconclusive; . = no result given; & = joins results of further samples; [ ] = remark or other dose. Unless noted, calls come from the whole dose curve; as a rule, active means well fitted rising curve with a large enough effect; inconclusive means small, poorly fitted or top-dose-only effect; inactive means no such curve, though single readings can be large or run the other way. Potency is the fitted concentration of half-maximal effect. Compounds were not picked by outcome. Share with any hit: about 4.8%.
compound,NS1 function inh,StopGo reporter,LASV entry inh,SARS PLP yeast,Marburg entry inh,RE007 growth inh,Cruzain noTriton,Cruzain inh Det
CCCn1c(C)cc(C(=O)Cn2nnc3ccccc3c2=O)c1C,.,0%,?,-1%,14µM*,10%,.,.
O=C(Nc1ccc(N2CCCCC2)c(Cl)c1)c1ncn[nH]1,-9%,8%,?,-27%,-17%,37%,-2%,8.0%
Cc1ccc(Cn2nc(C)c(C=O)c2Cl)cc1,.,-15%,4%,0%,31%[46.1 µM],6%,.,.
COc1cccc(SCC2(O)CCN(C(=O)c3ccc(Cl)cc3)CC2)c1,-8%,-22%,15%,0%,8%[46.1 µM],9%,.,.
CCN(CC)CCNC(=O)c1ccc(NS(=O)(=O)c2ccc3c(c2)OCCO3)cc1,.,5%,-7%,2%,27%[46.1 µM],5%,.,.
CS(=O)(=O)c1ccc(SCC(=O)NC2CCS(=O)(=O)C2)c([N+](=O)[O-])c1 (stereo not given),.,2%,7%[46.1 µM],-10%,?,0%,.,.
O=C(CSc1nnc(CNC(=O)c2cccc(C(F)(F)F)c2)o1)NCc1ccco1,21%,-2%,0%,-4%,?,-13%,.,.
NC(Cc1nc2ccccc2[nH]1)c1ccc(Cl)cc1 (stereo not given),-4%,40%[activator],?,-2%,?,-6%,.,.
Cc1ccc(OCC(=O)N2CCN(S(=O)(=O)c3ccccc3)CC2)c([N+](=O)[O-])n1,-3%,-18%,-7%,6%,?,0%,-1%,-3.5%
NC(=O)c1cccc(NC(=O)CCCCC(=O)Nc2cccc(C(N)=O)c2)c1,2%,9%,.,0%,.,2%,.,.

# Next part
compound,NS1 function inh,StopGo reporter,LASV entry inh,SARS PLP yeast,Marburg entry inh,RE007 growth inh,Cruzain noTriton,Cruzain inh Det
Cc1ccc(-n2c(C)cc(/C=C3\C(=O)NC(=O)N(C)C3=O)c2C)cc1C,15%,-16%,-6%,-14%,-39%,-1%,?,-2.6%
COc1cc(OC)cc(C(=O)N2CCN(C(=O)c3cccc(F)c3)CC2)c1,-3%,3%,21%,.,3%,8%,2%,5.5%
C=C(C)CNC(=S)Nc1cccc(N)n1,0%,7%,-11%,1%,-2%[46.1 µM],?,.,.
Cc1nc2ccccc2n1Cc1ccc(Cl)cc1,4%,?,.,-2%,.,-2%,.,.
Cc1ccccc1-c1nc(CS(=O)(=O)CC(=O)NC2CCCCC2C)c(C)o1 (stereo not given),-27%,-2%,-18%[46.1 µM],3%,-2%[46.1 µM],1%,.,.
Cc1ccc(Cn2c(CNS(=O)(=O)c3c(C)cc(C)cc3C)nc3cccnc32)cc1,.,55%[activator],5%[46.1 µM],.,.,.,-8%,-5.9%
C/C(=N\NC(=O)c1cc(C)[nH]n1)c1ccc(-c2ccccc2)cc1,-9%,16%,?,0%,?,-21%,.,.
CCN(CC)C(=O)c1c(-c2ccccc2)oc2ccc(OC)cc12,-25%,-14%,-12%,15%,-13%,-13%,12%,-2.3%
COCCCn1c(SCC(=O)Nc2oc(C)c3c(C)n[nH]c(=O)c23)nc2sc3c(c2c1=O)CCC3,.,-28%,0%,.,-8%,6%,.,.
O=S(=O)(c1ccc(SCCOc2cccc(Br)c2)nc1)N1CCCC1,.,-47%,-19%,4%,-21%,-9%,.,.

# (next part)
compound,NS1 function inh,StopGo reporter,LASV entry inh,SARS PLP yeast,Marburg entry inh,RE007 growth inh,Cruzain noTriton,Cruzain inh Det
O=C(O)Cn1nc(-c2ccccc2)ccc1=O,21%,12%,?,4%,22%,49%,.,.
CCOC(=O)c1[nH]c2cc3c(cc2c1NC(=O)CN1CCc2ccccc2C1)OCO3,3%,?,?,5%,?,0%,-15%,-2.7%
O=C(Cc1cccs1)N(c1ccccc1)C1C=CS(=O)(=O)C1 (stereo not given),-1%,10%,6%,-6%,1%,7%,2%,0.2%
Cc1ccc(/C=N/NC(=O)C[n+]2ccccc2)s1,0%,14%,3%[46.1 µM],-1%,9%[46.1 µM],5%,.,.
CC(Sc1nnc(-c2ccncc2)n1C)C(=O)Nc1nccs1 (stereo not given),3%,-5%,14%[46.1 µM],2%,-5%[46.1 µM],8%,.,.
Cc1ccc(SCC(=O)Nc2ncc(C)s2)cc1,-31%,12%,-11%,-2%,-26%[46.1 µM],27%,-10%,2.1%
CC1CN(Cc2nc3c(c(=O)n(C)c(=O)n3C)n2CCCO)CC(C)O1 (stereo not given),10%,-17%,3%,-7%,4%,-3%,-2%,0.9%
Cc1ccc(C2=NS(=O)(=O)N(C)C(C(=O)Nc3ccc4c(c3)OCO4)=C2)cc1,12%,-13%,.,-8%,.,5%,.,.
CCOc1ccccc1-n1nnnc1SCC(=O)NCc1ccco1,-4%,9%,.,-2%,.,-2%,.,.
O=C1C(=O)N(CCO)C(c2ccccc2[N+](=O)[O-])/C1=C(\O)c1ccccc1 (stereo not given),-2%,-2%,-11%,-1%,?,0%,.,.

# The last two records of the part above open the next one.
compound,NS1 function inh,StopGo reporter,LASV entry inh,SARS PLP yeast,Marburg entry inh,RE007 growth inh,Cruzain noTriton,Cruzain inh Det
CCOc1ccccc1-n1nnnc1SCC(=O)NCc1ccco1,-4%,9%,.,-2%,.,-2%,.,.
O=C1C(=O)N(CCO)C(c2ccccc2[N+](=O)[O-])/C1=C(\O)c1ccccc1 (stereo not given),-2%,-2%,-11%,-1%,?,0%,.,.
CS(=O)(=O)N(CC(=O)NC1CC2CCC1C2)c1ccc(Oc2ccccc2)cc1 (stereo not given),-13%,-8%,?,-2%,?,10%,.,.
N#Cc1ccc(C23CC4(C2)[C@H](CN(Cc2ccc(C(F)(F)F)cc2)[C@@H]4c2ccccc2)C3c2ccc(C(F)(F)F)cc2)cc1 (stereo not given in full),7%,-8%,.,-2%,.,10%,?,0.0%
Cc1ccc(C)c(NS(=O)(=O)c2cc(C(=O)NCC3CCCO3)ccc2C)c1 (stereo not given),9%,53%[activator],5%,4%,-18%,-8%,.,.
CC1=C(C(=O)OCc2ccccc2)C(c2cccc(F)c2)NC(=O)N1 (stereo not given),3%,-3%,?,2%,?,5%,.,.
CCOC(=O)Cc1csc(N/N=C/c2cccc([N+](=O)[O-])c2)n1,-11%,0%,-25%,14%,-20%[46.1 µM],1%,.,.
CCCn1c(SCC(=O)Nc2ccc(S(=O)(=O)N(C)C)cc2)n[nH]c1=O,.,2%,-18%,4%,1%[46.1 µM],-19%,.,.
Cc1cccc(C)c1NC(=O)C1(NC(=O)c2cnccn2)CCCCC1,?,-13%,.,2%,.,11%,-7%,3.5%
COc1cc(OC)cc(C(=O)N2CCN(C(=O)COc3ccc4ccccc4c3)CC2)c1,-14%,.,1%,-10%,8%,13%,?,-3.7%
O=C(c1cc(COc2ccc(F)cc2Cl)on1)N1CCc2ccccc2C1,-5%,14%,14%[46.1 µM],0%,6%[46.1 µM],9%,.,.
NC(=O)c1nsc(C(=O)N(c2ccccc2)C(C(=O)NC2CCCCC2)c2ccc(O)cc2)c1N (stereo not given),-2%,-15%,?,-4%,13%,-10%,.,.

# Whole records as entered above.
# Results for N#Cc1ccc(C23CC4(C2)[C@H](CN(Cc2ccc(C(F)(F)F)cc2)[C@@H]4c2ccccc2)C3c2ccc(C(F)(F)F)cc2)cc1 (stereo not given in full) → NS1 function inh: 7%; StopGo reporter: -8%; LASV entry inh: .; SARS PLP yeast: -2%; Marburg entry inh: .; RE007 growth inh: 10%; Cruzain noTriton: ?; Cruzain inh Det: 0.0%
# Results for O=C(c1cc(COc2ccc(F)cc2Cl)on1)N1CCc2ccccc2C1 → NS1 function inh: -5%; StopGo reporter: 14%; LASV entry inh: 14%[46.1 µM]; SARS PLP yeast: 0%; Marburg entry inh: 6%[46.1 µM]; RE007 growth inh: 9%; Cruzain noTriton: .; Cruzain inh Det: .

# (list continues)
compound,NS1 function inh,StopGo reporter,LASV entry inh,SARS PLP yeast,Marburg entry inh,RE007 growth inh,Cruzain noTriton,Cruzain inh Det
NS(=O)(=O)c1ccc(NC(=O)COC(=O)CCNC(=O)NC23CC4CC(CC(C4)C2)C3)cc1,2%,2%,1%,0%,6%&6%[46.1 µM],1%,2%,-4.2%
CC(NC(=O)Cn1nnc(-c2ccncc2)n1)c1ccccc1 (stereo not given),1%,.,.,10%,.,.,-9%,-2.5%
CCC(CC)c1nc2cc(OC)c(OC)cc2c(=O)o1,2%,-1%,8%,0%,-4%&-4%,27%,-7%,-0.4%
Cc1nc(N2CCCC2)ncc1C(=O)Nc1ccccc1,.,5%,9%[46.1 µM],.,.,.,-4%,-2.9%
COc1ccc(-c2c[n+]3c(n2-c2ccccc2)SCC3)cc1,2%,-14%,?,2%,?,1%,.,.
Cc1ccc(CNC(=O)CSCc2ccccc2C)cc1,.,58%[activator],.,.,.,.,-4%,-1.6%
N#CCCn1cc(C(=O)O)c(-c2cccs2)n1,1%,4%,.,1%,.,8%,.,.
O=C(Nc1cnccn1)c1ccc(Cl)cc1,-2%,7%,23%[46.1 µM],0%,10%[46.1 µM],-12%,.,.
O=C1CC(c2ccc(Br)cc2)c2c(ccc3ccccc23)N1 (stereo not given),.,0%,-23%[46.1 µM],.,-19%[46.1 µM],.,?,-11%
Oc1c(Br)cc(/C=N/NC(=S)NCC2CCCO2)cc1Br (stereo not given),-8%,?,-5%,-1%,-18%,13%,.,.

# Carrying on:
compound,NS1 function inh,StopGo reporter,LASV entry inh,SARS PLP yeast,Marburg entry inh,RE007 growth inh,Cruzain noTriton,Cruzain inh Det
COc1ccc(C(CNC(=O)c2ccccc2C)N2CCCC2)cc1 (stereo not given),-11%,23%,1%,3%,-5%,7%,0%,5.0%
COc1ccc(OC)c(S(=O)(=O)N/N=C\c2cn(CC(N)=O)c3ccccc23)c1,-8%,114%[activator],-14%,-4%,-17%,?,.,.
COC(=O)/C=C1\S/C(=N/NC(=O)c2ccccc2)NC1=O,0%,-8%,-2%,10%,3%,21%,-1%,-2.1%
O=C(NCCN1CCOCC1)c1ccc(/C=C2\Sc3ccccc3N(Cc3ccc(F)cc3)C2=O)cc1,11%,?,.,-1%,.,16%,.,.
